2A StopGo – High Throughput Screening for Foot and Mouth Disease Virus Antivirals | actives 1.2% (n = 410,000) | Potency, µM (top dose mostly 57.9 µM), without a hit: at the top dose signal change, negative = less light | human cells with a luciferase reporter of 2A StopGo recoding; control for the full effect not named in the record; active = well fitted falling curve with a large enough effect; inconclusive = small, poorly fitted or top-dose-only effect; inactive = no such curve, though single readings can be large or run the other way; tested in HEK293T cells; further: on the % scale 0 is the no-effect control and ±100 the full control effect; nearly all actives have a fitted effect of over 45% in size; luciferase light after 4 h
NS1 inh – qHTS Assay for Inhibitors of Influenza NS1 Protein Function; S. cerevisiae slowed by influenza A NS1, growth recovery by OD600; Potency, µM (doses to about 46.1 µM), without a hit: top-dose activity, positive = more growth; actives 0.4% (n = 270,000); AID 2326, 2010; further: actives are rising curves; nearly all actives have a fitted effect of over 50% in size
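A cell-based growth assay was used: compounds that relieve NS1-induced slow growth of budding yeast raise OD600. Assay medium was yeast nitrogen base with ammonium sulphate and -URA supplement, pH 6.0, with 2% galactose.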
RE007 growth inh – qHTS Assay for Inhibitors of the HIV-1 protein Vpr; actives 0.21% (n = 360,000); Potency, µM (titrated, usually from 92.2 µM), for the others: at the top dose activity change, negative = less growth; S. pombe RE007 Vpr strain, BacTiter-Glo ATP luminescence, 24 h; control for the full effect not named in the record; active = well fitted falling curve with a large enough effect; inconclusive = small, poorly fitted or top-dose-only effect; inactive = no such curve, though single readings can be large or run the other way;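 further: on the % scale 0 is the no-effect control and ±100 the full control effect; nearly all actives have a fitted effect of over 50% in size; the assay follows cell death caused by Vpr and the record does not say whether a fall means rescue or toxicity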
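Fission yeast strain RE007, carrying one chromosomally integrated HIV-1 vpr copy, was seeded at OD 0.01 in PMG+AL medium with 23 nL pinned compound. After 24 h at 30 °C and 99% humidity, viability was read by BacTiter-Glo luminescence.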
Cruzain inh noDet – qHTS Assay for Promiscuous and Specific Inhibitors of Cruzain (without detergent). Cruzipain (Trypanosoma cruzi), P25779. actives 2.3% (n = 200,000). purified cruzain, Z-FR-AMC fluorescence, no detergent. AID 1476, 2009. Potency, µM, for the others: max response, negative = inhibition, usual class: inhibitors; active means well fitted curve in the direction sought with a large enough effect; inconclusive means small, poorly fitted or top-dose-only effect, or another doubt; inactive means no such curve, though single readings can be large; an effect the other way counts as inactive or inconclusive;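 further: plate controls were enzyme without inhibitor for no effect and buffer without enzyme for full effect; nearly all actives have a fitted effect of over 40% in size; top concentration of the series not given in the record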
Target sequence (P25779 123-467 limits assumed): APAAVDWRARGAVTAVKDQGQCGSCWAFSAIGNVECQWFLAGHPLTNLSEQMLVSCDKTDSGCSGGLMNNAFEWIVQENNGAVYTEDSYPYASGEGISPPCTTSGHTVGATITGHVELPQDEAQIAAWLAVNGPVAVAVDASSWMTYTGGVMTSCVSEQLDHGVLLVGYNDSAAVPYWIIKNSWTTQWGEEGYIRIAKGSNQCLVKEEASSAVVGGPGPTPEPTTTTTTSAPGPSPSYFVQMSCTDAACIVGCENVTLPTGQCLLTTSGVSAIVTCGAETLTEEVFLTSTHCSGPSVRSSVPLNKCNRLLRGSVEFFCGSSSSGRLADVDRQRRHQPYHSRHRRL
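Detergent-free condition (0.00005% Triton X-100) in acetate buffer pH 5.5 with DTT. 1.5 nM enzyme and compound were pre-mixed 15 min, then 2 uM Z-FR-AMC substrate added; reaction progress from fluorescence change between first and third reads (60 s).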
Marburg entry inh – qHTS for inhibitors of binding or entry into cells for Marburg Virus; Marburg virus pseudotyped entry inhibition, cell reporter; control for the full effect not named in the record; about a third of the inactives were read at about 46 µM; Potency, µM (doses to about 37.8 µM), inactives show at the top dose activity change, negative = inhibition, actives largely listed as inhibitors; actives 1.8% (n = 300,000); active = well fitted inhibition curve with a large enough effect; inconclusive = small, poorly fitted or top-dose-only effect, or effect the other way; inactive = flat fitted curve, though single readings scatter; tested in HEK293 cells; about a fifth of its hits are not listed in these tables; further: on the % scale 0 is the no-effect control and ±100 the full control effect; luciferase read-out
Lassa entry inh – qHTS for Inhibitors of binding or entry into cells for Lassa Virus | Lassa virus pseudotype entry inhibition, cell reporter; control for the full effect not named in the record | Potency, µM (highest dose often 37.9 µM), without a hit: at the top dose activity change, negative = inhibition, hits mostly inhibitors | actives 1.2% (n = 300,000); active means well fitted inhibition curve with a large enough effect; inconclusive means small, poorly fitted or top-dose-only effect, or effect the other way; inactive means flat fitted curve, though single readings scatter; tested in HEK293 cells; further: on the % scale 0 is the no-effect control and ±100 the full control effect; nearly all actives have a fitted effect of over 50% in size; luciferase read-out
SARS PLpro yeast – qHTS of Yeast-based Assay for SARS-CoV PLP | S. cerevisiae expressing SARS-CoV PLpro, growth rescue; control for the full effect not named in the record | Potency, µM (highest dose often 32.9 µM), inactives show top-dose activity, positive = growth rescue | actives 0.19% (n = 330,000) | AID 485353, 2010; further: 0% is about no effect; nearly all actives have a fitted effect of over 55% in size; growth read by luminescence after 48 h
Cruzain inh Det – qHTS Assay for Promiscuous and Specific Inhibitors of Cruzain (with detergent). Cruzipain (Trypanosoma cruzi), P25779. purified cruzain, Z-FR-AMC fluorescence, 0.01% Triton. Potency, µM, for inactives: max response, negative = inhibition, most hits filed as inhibitors. actives 0.43% (n = 200,000). AID 1478, 2009; active means well fitted curve in the direction sought with a large enough effect; inconclusive means small, poorly fitted or top-dose-only effect, or another doubt; inactive means no such curve, though single readings can be large; an effect the other way counts as inactive or inconclusive;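 further: plate controls were neutral wells for no effect and buffer without enzyme for full effect; nearly all actives have a fitted effect of over 40% in size; top concentration of the series not given in the record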
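Purified cruzain (1.5 nM final) was preincubated with compounds for 15 min at room temperature in 100 mM sodium acetate pH 5.5, 5 mM DTT, 0.01% Triton X-100. Reaction started with 2 uM Z-FR-AMC; AMC fluorescence change over 60 s gave activity.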
* = called active by the depositor; ? = inconclusive; . = no result given; & = joins results of further samples; [ ] = remark or other dose. Unless noted, the call rests on the fitted dose curve; in most records, active means well fitted rising curve with a large enough effect; inconclusive means small, poorly fitted or top-dose-only effect; inactive means no such curve, though single readings can be large or run the other way. Potency means the concentration at half of the fitted maximal effect. Not a hit list; 4.8% or so of the library scored in one or more.

SMILES	2A StopGo	NS1 inh	RE007 growth inh	Cruzain inh noDet	Marburg entry inh	Lassa entry inh	SARS PLpro yeast	Cruzain inh Det
COc1cc(/C=N/Nc2ccc(Cl)c(C(=O)O)c2)ccc1OC(=O)c1ccco1	-24%	.	-9%	.	?	?	2%	.
O=C(Nc1ccccc1)c1ccc(S(=O)(=O)N2CCCCC2)cc1	-4%	-30%	-2%	-10%	.	.	16%	-5.7%
CCNc1nc(Cl)nc(NC(C)C)n1	9%&-4%	12%	12%	0%&3%&-1%	?	?	11%	4.3%&-1.4%&-2.9%
CCSc1n[nH]c2nc3c(c(=O)n12)C1(CCCC1)Cc1ccccc1-3	?	20%	-1%	?	20%	-4%	-5%	2.4%
Cc1ccc(C)c(S(=O)(=O)N(C)Cc2cccs2)c1	0%	.	-14%	.	17%	-2%	0%	.
O=C(CC1SC(=Nc2ccccc2)N(CCO)C1=O)Nc1ccccc1 (stereo not given)	4%	-1%	2%	.	?	?	0%	.
Fc1ccccc1-c1[nH]ncc1-c1nnnn1-c1ccccc1	-20%	-1%	-10%	.	.	.	0%	.
CCC(CC)C(=O)c1c[nH]c(C(=O)NCc2ccncc2)c1	-10%	.	21%	.	?	-23%	2%	.
O=C(c1cccc(F)c1)n1nnc2ccccc21	-10%	-6%	1%	-10%	0%	22%	-2%	1.8%
NC(=O)c1ccc([N+](=O)[O-])cc1SCc1ccccc1	-20%	-20%	-10%	-8%	-2%	1%	-25%	-5.6%
CCCn1c(=O)c2ccccc2n2c(SCC(=O)NCc3cccs3)nnc12	-10%	3%	21%	-3%	6%	-7%	1%	7.1%
COc1ccc(CN2CCC(Oc3ccc(C(=O)N4CCCCC4)cc3)CC2)cc1C	-14%	-9%	-15%	.	?	?	2%	.
COc1ccc(-c2noc(-c3cccc(OC)c3OC)n2)cc1	21%	.	.	11%	?	?	.	-8.1%
CN(C)S(=O)(=O)c1cccc(C(=O)NCc2cccs2)c1	-7%	8%	9%	-2%	-12%	?	2%	0.9%
Cc1ccccc1NS(=O)(=O)c1cc(C(=O)Nc2cccc(N(C)S(C)(=O)=O)c2)ccc1C	.	-13%	3%	-2%	-19%	?	1%	-1.9%
COc1ccc(Cl)cc1C(=O)NN=C1CCCC1	0%	.	16%	.	-1%	14%	.	.
Nc1c(C(=O)NCC2CCCO2)c2nc3ccccc3nc2n1Cc1ccco1 (stereo not given)	16%	8%	10%	.	?	-17%[46.1 µM]	0%	.
CC1CN(C(=O)c2cn3ccccc3n2)CC(C)O1 (stereo not given)	18%	-2%	15%	14%	14%	?	-4%	-2.8%
CC(C)(C)SCCNC(=O)/C=C/c1ccc(F)cc1	9%	-13%	28%	-1%	?	10%	7%	1.9%
O=C(Nc1cc(Cl)ccc1-n1cncn1)c1cc(F)c(F)c(F)c1F	-24%	.	0%	.	-11%	-6%	-15%	.
CCc1ccc(CN(Cc2ccco2)C(=O)c2cc(-c3ccc(C)c(F)c3)on2)cc1	-17%	.	.	14%	?	-8%[46.1 µM]	.	2.5%
CCCCNC(=O)CSc1nc2ccccc2c(=O)n1Cc1ccc2c(c1)OCO2	10%	2%	19%[3.69 µM]	20µM*	-24%	?	5%	5.8%
CC(C)(C)n1[nH]c2c3c(ccc2c1=O)C(=O)c1ccccc1C3=O	0%	-8%	?	-1%	?	?	-9%	-0.4%
COC(=O)c1cc(-c2ccc(OC)cc2F)nc2nc(SC)[nH]c(=O)c12	2%	-3%	-4%	.	?	-3%[46.1 µM]	1%	.
COC(=O)CN1C(=O)N/C(=C/c2ccc(OC)cc2)C1=O	11%	.	-20%	.	9%[46.1 µM]	.	1%	.
Going on with the list:
SMILES	2A StopGo	NS1 inh	RE007 growth inh	Cruzain inh noDet	Marburg entry inh	Lassa entry inh	SARS PLpro yeast	Cruzain inh Det
O=C(CN1CCOCC1)NCC12CC3CC(CC(C3)C1)C2	-26%	0%	21%	6%	?	15%	2%	1.2%
CCn1nc(C(=O)OC2CCOC2=O)c2ccccc2c1=O (stereo not given)	10%	-1%	-1%	-13%	3%	6%	7%	0.1%
Cc1ccc(Cl)cc1N1CCN(CCCNc2ncnc3onc(-c4ccc(F)cc4)c23)CC1	?	.	.	-1%	.	-26%[46.1 µM]	.	-0.1%
Cc1ccc(NC(=O)CSc2nc3ccccc3c(=O)n2CCCN2CCCCC2)cc1C	-19%	3%	-5%	-2%	?	21µM*	-4%	-4.9%
COc1ccc(-n2cc(C(=O)NCc3ccccc3Cl)c3ccccc3c2=O)cc1	-12%	.	.	0%	.	1%[46.1 µM]	.	-0.8%
Cc1ccc(S(=O)(=O)C(CNC(=O)C(=O)NCCc2ccc(Cl)cc2)c2cccs2)cc1 (stereo not given)	?	.	.	-10%	.	-12%[46.1 µM]	.	-1.1%
C=CCn1c(=N)n(CC(O)COc2ccccc2OC)c2ccccc21 (stereo not given)	-20%	-3%	-12%	0%	.	.	8%	5.0%
CCCCC(=O)Nc1sc2c(c1C#N)CC(C)(C)OC2	66%[activator]	-5%	3%	-29%	?	-1%	10%	0.7%
CC(Sc1nc(-c2ccccc2)cc(C(F)(F)F)n1)C(=O)NCc1ccco1 (stereo not given)	-11%	5%	-21%	-1%	?	-9%	-2%	-2.0%
COc1ccc(N2C(=O)C3C4C=CC(CC4)C3C2=O)c([N+](=O)[O-])c1 (stereo not given)	1%	4%	-2%	6%	26%	-36%[14.3 µM]	-5%	0.7%
CCOC(=O)c1sc2ncn(/N=C/N(C)C)c(=O)c2c1C	.	-3%	-3%	-2%	25%	11%	1%	-2.2%
Cc1cc(N/N=C/c2ccc3c(c2)OCO3)nc2ccccc12	45%[activator]	-3%	-12%	.	.	.	-1%	.
CC(=O)Nc1ccc(Nc2nc(-c3cc4ccccc4oc3=O)cs2)cc1	-30%	10%	-4%	.	-32%	-14%	11%	.
CCOC(=O)N/N=C/c1cccc(Cl)c1Cl	35%[activator]	-22%	.	-5%	?	18%	4%	-7.2%
CC1CN(C(=O)N2CCC(C(=O)NCc3ccco3)CC2)c2cc(Cl)ccc2O1 (stereo not given)	-12%	.	.	-21%	.	-2%[46.1 µM]	.	-5.3%
CC1CCCCN1S(=O)(=O)c1ccc(NC(=O)c2ccco2)cc1 (stereo not given)	19%	-52%	15%	-1%	-10%	?	8%	0.1%
CCOC(=O)c1ccc(N=C2SC(C(=O)NC)CC(=O)N2Cc2ccc(F)cc2)cc1 (stereo not given)	-9%	.	-18%	.	5%	?	-3%	.
O=C(Cn1cnc2c(cnn2-c2ccc(F)cc2)c1=O)N1CCN(c2ccccc2F)CC1	-24%	0%	3%	-5%	-10%	-2%	-6%	5.4%
O=C(c1ccc2c(c1)OCO2)N1CCN=C1SCc1cccnc1	-26%	-7%	-5%	0%	.	.	3%	2.5%
CC(C(=O)OCC(=O)Nc1cccc(S(=O)(=O)N2CCOCC2)c1)N1C(=O)c2ccccc2C1=O (stereo not given)	-19%	.	60%	.	-23%[46.1 µM]	-1%[46.1 µM]	-1%	.
Cc1ccc(N(CC(N)=O)C2SC(=O)N(Cc3ccccc3)C2=O)cc1 (stereo not given)	-11%	1%	-8%	12%	7%	-6%	-1%	-1.3%
O=C(Nc1ccc(OCC(=O)N2CCOCC2)cc1)c1ccccc1Cl	0%	4%	-1%	.	-11%	?	2%	.
CC1CCN(S(=O)(=O)c2cccc(C(=O)O)c2)CC1	13%	7%	3%	-10%	-6%	-12%	1%	4.9%
NC(=O)CC[C@@H]1NC(=O)C(Cc2ccc(O)cc2)NC(=O)c2cc([N+](=O)[O-])cc(F)c2NCCC[C@@H](C(N)=O)NC1=O (stereo not given in full)	.	-17%	.	5%	20%	28%	-5%	-6.0%
COC(=O)NCC12CC3CC(C1)CC(CNC(=O)OC)(C3)C2	-6%	6%	23%	9%	?	-4%	6%	-0.5%
Following part
SMILES	2A StopGo	NS1 inh	RE007 growth inh	Cruzain inh noDet	Marburg entry inh	Lassa entry inh	SARS PLpro yeast	Cruzain inh Det
O=C(Nc1ccc(F)cc1)c1cc2cc3ccc(Cl)cc3nc2o1	-6%	.	.	-9%	26%[46.1 µM]	5%[46.1 µM]	.	1.3%
O=[N+]([O-])c1ccc(/C=N/n2c(CO)nc3ccccc32)s1	-28%	-2%	-18%	-28%	?	0%	-10%	-4.6%
Cc1ccccc1NS(=O)(=O)c1csc(C(N)=O)c1	20%	-1%	8%	.	.	.	-2%	.
CCOc1ccccc1C=Nc1ccccc1C(=O)Nc1ccccc1	-12%	8%	.	1%	7%	3%	-2%	-6.6%
CCCN(CCC)CCNC(=O)CCC(=O)Nc1ccc2nc(N3CCOCC3)cc(C)c2c1	39%[activator]	2%	-4%	.	?	16%	4%	.
C/C(=N\NC(=O)c1c(Cl)c(C)nn1C)c1ccc(NC(=O)c2ccncc2)cc1	-23%	-8%	10%	?	9%	0%	11%	-4.5%
CC(C)CNc1c2c(nc3ccccc13)CCC2	?	-7%	-5%	.	?	?	15%	.
CCOc1ccc2nc(NC(NC(C)=O)(C(=O)OC)C(F)(F)F)sc2c1 (stereo not given)	31%[activator]	-9%	4%	2%	-6%	14%	3%	-3.7%
CC(=O)Nc1cc(C(=O)N2CCc3ccccc3C2)ccc1Sc1ccc(F)cc1	11%	-6%	24%	14%	-12%	-2%	1%	1.7%
COCCNc1nc2nonc2nc1NC(C)c1ccccc1Cl (stereo not given)	-14%	-1%	-2%	.	.	.	0%	.

Screening results as filed in PubChem BioAssay.
